Assay outcomes: PubChem BioAssay, National Center for Advancing Translational Sciences (NCATS)
VACV mCherry inh: vaccinia inhibition (mCherry reporter). AID 720579. Potency, µM (highest dose often 36.5 µM), inactives show at the top dose activity change, negative = inhibition, actives largely listed as inhibitors. Vaccinia virus mCherry reporter infection, fluorescence; about a quarter of the inactives have no number. 310,000 compounds, 0.63% hits; active = well fitted inhibition curve with a large enough effect; inconclusive = small, poorly fitted or top-dose-only effect; inactive = no such curve, though single readings can be large or run the other way; tested in A549 cells; also: nearly all actives have a fitted effect of over 35% in size; inactives centre near -10
VACV Venus inh: vaccinia inhibition (Venus reporter); Vaccinia virus Venus reporter expression, fluorescence; Potency, µM (highest dose often 36.5 µM), without a hit: at the highest dose activity change, negative = inhibition, usual class: inhibitors; 330,000 compounds, 0.46% hits; active means well fitted inhibition curve with a large enough effect; inconclusive means small, poorly fitted or top-dose-only effect; inactive means no such curve, though single readings can be large or run the other way; tested in A549 cells; also: nearly all actives have a fitted effect of over 30% in size; inactives centre near -10
The depositor's hits bear a star; i = inactive; ? = inconclusive; . = not tested or not shown; & = joins results of further samples; [ ] = remark or other dose. % is scaled to controls: 0 for no effect and ±100 for the full control effect; potency is read from the fitted curve at half-maximal effect.

SMILES | VACV mCherry inh | VACV Venus inh
O=C(c1ccco1)N(Cc1cccc(Br)c1)C1CCS(=O)(=O)C1 (stereo not drawn) | i | -19.4%
COc1ccc(C(=O)N2CCCC(O)C2)cc1OC1CCN(C(C)C)CC1 (stereo not drawn) | -0.4% | -12.9%
O=C(CN1CCN(c2ccccc2F)CC1)c1ccc(O)c(O)c1 | ? | -19.0%
CCC(CC)c1nn2c(N)c(/C=C3\C=Nc4ccccc43)c(=O)nc2s1 | i[7.34 µM] | -10.6%[7.34 µM]
N/C(=N\OC(=O)Cc1ccc([N+](=O)[O-])cc1)c1ccc([N+](=O)[O-])cc1 | -18.9% | -18.7%
COc1ccc(CCNC(=O)COc2ccc(-c3ccccc3)cc2)cc1OC | -5.2% | 3.4%
O=C(C1CCCCC1)N1CCC(O)(c2ccc(Cl)cc2)CC1 | -12.5% | -9.7%
CN(/N=C/C=C/c1ccccc1)C1=NS(=O)(=O)c2ccccc21 | i | -3.3%
O=C(NCc1cccc(Cl)c1)c1ccc2nc(N3CCCCC3)sc2c1 | -24.9% | -18.4%
CC(C)NC(=O)CSc1nc2ccccc2n1CC(=O)N1CCc2ccccc21 | i | -15.3%
COc1cc2cc(C(=O)N3CCN(Cc4ccc5c(c4)OCO5)CC3)c(=O)oc2cc1OC | -2.8% | -13.5%
C=CCNC(=O)CN(c1ccc(OC)cc1OC)S(C)(=O)=O | -3.4% | -8.9%
COc1ccc(N=N/C(=C\O)C(=O)c2ccco2)cc1 | 6.2% | -9.7%
CC1CCN(c2oc(-c3ccccc3Cl)nc2C#N)CC1 | . | -17.8%
COCCn1c(N)c(C(=O)NS(=O)(=O)c2ccc(C)cc2)c(=O)[nH]c1=O | ? | -19.0%
COc1ccc(S(=O)(=O)N(CC(=O)NC2CC3CCC2C3)c2ccccc2OC)cc1 (stereo not drawn) | -15.3% | -25.7%
N#CC(C#N)=Cc1ccc([N+](=O)[O-])c(O)c1 | -11.7%[87.9 µM] | -10.5%[87.9 µM]
Cc1ccc(S(=O)(=O)N2CCCN(Cc3nc4ccccc4c(=O)[nH]3)CC2)cc1 | -24.9% | ?
O=C1CCSC2(C(=O)N(Cc3ccc(F)cc3)c3ccccc32)N1c1ccc(Cl)cc1 (stereo not drawn) | ? | -27.1%
COc1ccc(Cn2c(=O)c3oc4ccccc4c3n(CC(=O)Nc3ccc(F)cc3F)c2=O)cc1 | -8.2% | -2.0%
O=c1n(Cc2ccc(Cl)cc2)c2ccccc2c2nc(-c3ccccc3)nn12 | -1.2% | -3.3%
CCOC(=O)c1ccc(NC(=O)CNC(=O)c2ccco2)cc1 | i | -17.2%
C[N+]1(CC(=O)c2ccc(-c3ccccc3)cc2)CCOCC1 | i | -10.6%
CCS(=O)(=O)N1CC(=O)N(c2ccc(Cl)cc2C)C(C)(C(=O)NC2CCCCC2)C1 (stereo not drawn) | -14.9% | -7.7%
CCOc1cc(/C=C\[N+](=O)[O-])ccc1OCC(=O)Nc1ccccc1C | -13.1% | ?
COc1cc(-c2nc(Cn3nnc(C(=O)Nc4ccccc4C)c3C)c(C)o2)cc(OC)c1OC | -9.1% | -4.7%
Cn1nc(C(=O)NC2CCCc3ccccc32)ccc1=O (stereo not drawn) | i | -3.4%
CCOc1ccc(C(C(=O)Nc2ccc(F)cc2)N(C(=O)Cn2nnc3ccccc32)C2CC2)cc1 (stereo not drawn) | -2.8% | -19.9%
O=[n+]1cc(-c2cccc3ccccc23)n([O-])c2c1CCC2 | -2.4% | -10.0%
CNC(=O)c1cc(NC(=O)CCn2nc(-c3ccccc3)c3ccccc3c2=O)ccc1OC | i | -15.4%
NNC(=O)c1sccc1OCc1cccc(C(F)(F)F)c1 | -14.9% | -4.2%
O=C(CN1C(=O)NC2(CCOc3ccccc32)C1=O)c1cccs1 (stereo not drawn) | 0.9% | -5.0%
O=c1c2ccc([N+](=O)[O-])cc2ncn1CCOc1ccccc1 | -14.8% | -12.1%
Cc1nn(C)c(C)c1CN(Cc1nc(CCC(C)C)no1)C(C)C | -11.8% | -13.2%
COc1ccccc1C1CC(c2ccccc2)=NN1C(=S)Nc1ccccc1 (stereo not drawn) | -8.0% | -3.4%
O=C(O)c1cc2ccccc2c(N=Nc2cccnc2)c1O | 15.8% | 9.5%
CC(NC(=O)c1ccco1)c1nnc2n1CCN(Cc1ccc(Cl)cc1)CC2 (stereo not drawn) | -13.2% | -4.6%
Cc1cccc(CNC(=O)c2ccc3c(c2)N(C)C(=O)C2CCCCN32)c1 (stereo not drawn) | -6.8% | -10.9%
CCCCNC(=O)c1ccc(SCC(=O)N(CC)CC)c([N+](=O)[O-])c1 | i | -6.2%
Cc1cc(C)c2nc(SCC(=O)Nc3ccccc3N3CCOCC3)c(C#N)cc2c1 | -15.1% | -9.3%
Cn1c(=O)c2[nH]c(C(O)c3ccc(Cl)cc3)nc2n(C)c1=O (stereo not drawn) | i | -19.9%
CC1CCN(c2nc3c(c(=O)[nH]c(=O)n3C)n2Cc2ccccc2)CC1 | 13.3% | -13.0%
O=C(O)c1cc(S(=O)(=O)N2CCOCC2)c(Sc2ccccn2)cc1Sc1ccccn1 | i | 0.0%
O=C(COc1ncnc2sccc12)Nc1ccc(F)cc1F | 0.9% | -6.1%
O=C(c1ccncc1)N1CCN(c2ccc3ccccc3n2)CC1 | -18.9% | -17.8%
Cc1cccc(C)c1NC(=O)C(=O)NCC(c1ccc2c(c1)OCO2)N1CCN(C)CC1 (stereo not drawn) | -3.1% | -8.1%
CCOC(=O)c1c(C)nc2sc(C(N)=O)c(N)c2c1-c1ccc(OC)cc1 | -2.4% | ?
C#CCn1c(=NC(=O)c2ccc3c(c2)OCCO3)sc2cc(OC)c(OC)cc21 | -16.0%[7.34 µM] | -12.2%[7.34 µM]
COc1cc(/C=C/CNC[C@H]2O[C@@H](n3ccc(=O)[nH]c3=O)[C@H](O)[C@@H]2O)ccc1O | i | 0.0%
CCn1cc([N+](=O)[O-])c(C(=O)N2N=C(c3ccc(OC)cc3OC)CC2c2ccccc2O)n1 (stereo not drawn) | -2.3% | -23.6%
(further entries)
SMILES | VACV mCherry inh | VACV Venus inh
CCCCCCCCS(=O)CCC(=O)O (stereo not drawn) | i | -5.7%
COc1ccc(S(=O)(=O)NCC(c2ccco2)S(=O)(=O)c2cccs2)cc1OC (stereo not drawn) | -14.5% | -14.2%
O=C1Nc2cc(Cl)c(Cl)cc2N(O)N1c1ccccc1 | -13.8% | -9.1%
CCCCNC(=O)C1CCN(S(=O)(=O)CCC)CC1 | -8.1% | -7.0%
CCOc1ccc(CCN2C(=O)C(=O)N([C@@H](Cc3ccccc3)CN3CCC[C@@H]3CN3C(=O)C(=O)NC[C@@H]3Cc3ccc(O)cc3)C[C@@H]2Cc2ccccc2)cc1 | 5.5% | -2.8%
Cc1ccc(CCNC(=O)c2ccc3c(=O)n(-c4ccccc4)c(=O)[nH]c3c2)cc1 | 2.1% | 2.5%
Cc1ccc(NC(=O)C2CCCN2S(=O)(=O)c2ccc3c(c2)n(C)c(=O)c(=O)n3C)c(C)c1 (stereo not drawn) | -12.9% | -12.7%
CC(=O)c1cc(CC=C(C)C)c(O)c(CC=C(C)C)c1O | . | -16.6%
COc1ccc(Cn2c(=O)c3cccnc3n(Cc3cccc(OC)c3)c2=O)cc1 | -9.8% | -11.2%
Cc1ccc(C(=O)Nc2ccccc2NC(=O)c2ccc(C)o2)o1 | . | -8.3%
Cc1cnc(CN(C)C(=O)c2cc(COc3c(F)cccc3F)on2)[nH]1 | i | -13.1%
COc1ccc(C2C=C(c3ccccc3)Nc3nc(NC(=O)c4ccc(C)cc4)nn32)cc1 (stereo not drawn) | -19.6% | -13.5%
CCOc1ccc(CNC(=O)c2ccc(CS(=O)Cc3ccc(Cl)cc3)o2)cc1 (stereo not drawn) | -4.7% | -8.9%
OCc1cccc(-c2csc(C(O)c3ccco3)n2)c1 (stereo not drawn) | i | 1.8%
Nc1nonc1C(=O)N/N=C/c1cc(Br)ccc1O | ? | ?
Cc1cccnc1-c1cccc2c1OC(CNC(=O)Cc1c(C)noc1C)C2 (stereo not drawn) | -9.6% | -0.3%
CC(C)(O)C#Cc1ccc(C(=O)N2CCN(c3ccc(Cl)cc3)CC2)cc1 | 0.9% | -0.7%
CN=C1NN=C(c2cc(C)n(-c3ccc(Cl)cc3)c2C)CS1 | i | -8.0%
CSc1ccc(/C=C(/NC(=O)c2ccco2)C(=O)N2CCCCCC2)cc1 | -7.6% | -18.0%
OC1(c2ccc3c(c2)OCO3)CCN(Cc2ccccn2)CC1 | -14.1% | -3.1%
Cc1ccc(NC(=O)c2c(C)cc(C)nc2SCC(=O)Nc2ccc(Br)cc2)cc1 | i | -17.7%
O=C(CCCCC(=O)OCC1COCO1)OCC1COCO1 (stereo not drawn) | -12.8% | -10.1%
Cc1cc2nc(-c3ccc(OCc4ccccc4)cc3)cc(C(F)(F)F)n2n1 | -20.1% | -10.4%
CS(=O)(=O)NN1C(=O)c2ccccc2NC1c1ccccc1 (stereo not drawn) | -0.2% | -13.3%
Cc1cccc(C(=O)Nc2cccc(C(=O)OCc3cc(=O)n4c5c(sc4n3)CCCC5)c2)c1 | -5.8% | -16.1%
CCOC(=O)c1ccc(N=C(CC)c2c(O)n(C)c(=O)n(C)c2=O)cc1 | i | -3.9%
CC(=O)Oc1cccc(C(=O)Nc2c[nH]c(=O)[nH]c2=O)c1 | -5.5% | -1.0%
COCC(=O)Nc1cc(OC)c(Cl)cc1OC | -11.9% | -12.2%
COc1ccc(C(C(=O)NC2CCCC2)N(CCCO)C(=O)Cn2nnc(-c3ccc(C)o3)n2)cc1 (stereo not drawn) | -12.0% | 2.8%
CCOc1ccc(C(C)=O)cc1CSC(=N)N | -3.0% | -3.4%
CC(C)(C)OC(=O)N1CCC(C(=O)Nc2ccc(C(=O)NCCc3ccccc3)cc2)CC1 | -13.0% | ?
COC(=O)c1ccc(NC(=O)CSc2nc(=O)[nH]c3c2CCCC3)cc1 | -4.6%[7.34 µM] | -4.8%[7.34 µM]
Cc1ccc(C)c(NC(=O)Cn2nnc(-c3ccc(N4CCOCC4)cc3)n2)c1 | -2.0% | -24.9%
CCOc1ccccc1CN1CCC(CO)(CCOc2ccccc2)CC1 | -14.7% | -12.4%
CC(C)C(=O)Nc1ccc(NC(=O)c2cccc(F)c2)cn1 | i | -8.9%
CC(C)(C)OC(=O)N1CCC(c2c(C(=O)N3CCN(c4ccccn4)CC3)cnn2-c2ccc(F)cc2)CC1 | -3.6% | 0.6%
O=C(c1nc(-c2ccc(Cl)cc2)n2c1CCCCC2)N1CCN(c2ccc(F)cc2)CC1 | -24.4% | -19.2%
COc1ccc(N(C)C(=O)NCc2noc3ccc(C)cc23)c(OC)c1 | -3.3% | 5.9%
CCc1ccc(OCC(=O)NCC(c2ccc(OC)cc2)N2CCOCC2)cc1 (stereo not drawn) | -14.9% | -13.2%
O=C(CCN1CCN(S(=O)(=O)c2ccc(Br)cc2)CC1)Nc1ccccc1F | -1.9% | -15.0%
CC(NC(=O)CSc1nc2sc3c(c2c(=O)n1-c1ccccc1)CCCC3)c1ccccc1 (stereo not drawn) | i | -9.6%
CCOc1ccc(CNC(=O)Cn2nc(C)c3nn(-c4ccc(Cl)cc4)c(C)c3c2=O)cc1 | -10.9% | 0.0%
CCOC(=O)N1CCC(N2C(=O)c3ccccc3C2=O)CC1 | i | -1.7%
O=C(Nc1ccc(NC(=O)c2ccc(Br)cc2)c(Cl)c1)c1ccc(Br)cc1 | -6.7% | 1.5%
Cc1ccc(N2C(=N)/C(=C3/Nc4ccccc4S3)C(c3ccccc3)C2=O)cc1 (stereo not drawn) | -8.5% | -7.3%
O=C(CN1C(=O)c2ccccc2S1(=O)=O)NCCSCc1c(F)cccc1Cl | ? | -5.4%
O=S1(=O)CCC(NC(=S)Nc2ccc(Cl)cc2)C1 (stereo not drawn) | i | -9.8%
CCCN1CCc2nc(SCC(=O)Nc3ccc(C)c(Cl)c3)[nH]c(=O)c2C1 | -13.6% | -1.3%&-5.7%
CCC(=O)N1CCc2cc(Br)cc(S(=O)(=O)N3CCC(C(=O)NC(C)C)CC3)c21 | -7.8% | 0.7%
COc1ccc([C@H]2CC(=O)C=C(c3cccc(OC(F)(F)F)c3)C2)cc1 | i | -10.8%

Reformatted: results already given
> COc1ccc(N(C)C(=O)NCc2noc3ccc(C)cc23)c(OC)c1
  VACV mCherry inh: -3.3%
  VACV Venus inh: 5.9%
> CC(NC(=O)CSc1nc2sc3c(c2c(=O)n1-c1ccccc1)CCCC3)c1ccccc1 (stereo not drawn)
  VACV mCherry inh: i
  VACV Venus inh: -9.6%

In the list so far, these have a tert-butyl group:
SMILES | VACV mCherry inh | VACV Venus inh
CC(C)(C)OC(=O)N1CCC(C(=O)Nc2ccc(C(=O)NCCc3ccccc3)cc2)CC1 | -13.0% | ?
CC(C)(C)OC(=O)N1CCC(c2c(C(=O)N3CCN(c4ccccn4)CC3)cnn2-c2ccc(F)cc2)CC1 | -3.6% | 0.6%

Later entries:
SMILES | VACV mCherry inh | VACV Venus inh
O=C(CSc1nc2ccccc2[nH]1)NCCc1ccc(Cl)cc1 | -21.6% | -18.6%
CCCc1cc(=O)oc2c(C)c(OCC(=O)N3CCC[C@@H]3C(=O)O)ccc12 | -5.1% | -0.1%
CC(=O)c1ccc(NC(=O)CSc2nc(=O)n3cccc(C)c3n2)cc1 | -17.7% | -13.8%
CCc1ccc(Oc2nc3c(C)cccn3c(=O)c2/C=C(\C#N)c2nc3ccccc3s2)cc1 | -10.2% | 4.0%
